Vif TR-FRET: inhibitors of Vif binding to APOBEC3G peptide, primary screen, biochemical, TR-FRET, GST-Vif 1-94, biotin-A3G peptide, dose response retest (AID 1117319). TR-FRET GST-Vif / biotin-A3G peptide binding; higher % means a stronger effect; test concentration not given here; strong numbers were not always called active. inhibition, %, or IC50 in µM where a hit was titrated. 260,000 compounds, 0.57% hits;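 active = above the screen mean plus three standard deviations and confirmed in dose response; inconclusive = results disagree or hit not tested in dose response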;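 note: Vif residues 1-94 fused to GST binding biotinylated APOBEC3G peptide 110-148; 0% = full assay without inhibitor and 100% = GST in place of GST-Vif; retest series ran down from 100 µM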
MLL AF4-AF9 inh: MLL-AF4/AF9 protein interaction inhibition; P42568; 350,000 compounds, 0.47% hits; AlphaScreen, biotin-AF4 peptide binding to FLAG-AF9; inhibition, % at 10 µM;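 active = every replicate reaching a set inhibition limit, whatever the replicate mean, cut at about 25% in these data; inconclusive = mean inhibition reaches that limit but some replicates miss it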;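 note: 0% = plate neutral control median and 100% = total signal loss; the record names both 10 and 1 µM as test concentration; the first replicate is given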
Target sequence (P42568 whole entry, looked up): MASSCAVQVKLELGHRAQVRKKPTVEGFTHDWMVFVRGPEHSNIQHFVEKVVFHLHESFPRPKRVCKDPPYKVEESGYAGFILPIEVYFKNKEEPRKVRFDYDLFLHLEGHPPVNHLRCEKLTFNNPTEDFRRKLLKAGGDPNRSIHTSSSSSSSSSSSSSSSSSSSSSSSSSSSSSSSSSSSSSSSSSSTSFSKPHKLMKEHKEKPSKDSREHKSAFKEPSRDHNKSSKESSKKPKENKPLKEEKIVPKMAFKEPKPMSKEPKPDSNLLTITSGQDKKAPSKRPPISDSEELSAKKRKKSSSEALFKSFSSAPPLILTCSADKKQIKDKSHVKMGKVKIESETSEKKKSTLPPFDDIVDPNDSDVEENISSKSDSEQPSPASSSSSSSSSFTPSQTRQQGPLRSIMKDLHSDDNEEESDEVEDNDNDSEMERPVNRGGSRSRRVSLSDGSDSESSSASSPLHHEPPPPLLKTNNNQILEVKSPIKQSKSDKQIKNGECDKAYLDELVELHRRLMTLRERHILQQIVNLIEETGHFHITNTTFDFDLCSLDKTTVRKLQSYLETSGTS
Ecoli rRNA inh: inhibitors of bacterial rRNA selective over humanized ribosomes | E. coli WT GFP vs humanized-ribosome RFP mutants, fluorescence, 24 h; active compounds read low; DMSO median 0, no signal -100 | GFP signal change (wild-type ribosome), % (test concentration not listed) | 350,000 compounds, 1.6% hits | AID 720706;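 active = significant combined selectivity score with lowered wild-type GFP, culture density cut under 30%, mutant RFP and density less affected; inactive = any of these conditions unmet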; note: one replicate is shown; some compounds called inactive have numbers as strong as hits
Ecoli rRNA inh OD600: further read-out of Ecoli rRNA inh, marked with its call; OD600 change, %; measured here: OD600 growth;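 optical density of the mix in the first replicate; 0 = DMSO median and -100 = no signal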
Ecoli rRNA inh RFP: further read-out of Ecoli rRNA inh, marked with its call; RFP signal change, %; measured here: RFP humanized mutant strains;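 first replicate; 0 = DMSO median and -100 = no signal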
* hit, by the source's call; ? = inconclusive; & = joins results of further samples. This is a subset; rates above refer to the full screens.

Molecule,Vif TR-FRET,MLL AF4-AF9 inh,Ecoli rRNA inh,Ecoli rRNA inh OD600,Ecoli rRNA inh RFP
COC(=O)CCN1CCC2CC1c1cc(Cl)ccc12 (configuration not stated),-6.5%,-4.6,5.1,8.0,-1.6
O=C1CSC(=S)N1c1ccccc1,-4.5%,-4.1,6.8,9.0,53.1
O=C(OCCOc1ccc(F)cc1)c1ccc(S(=O)(=O)N2CCCC2)cc1,3.1%,-3.5,2.6,0.1,-4.4
COc1ccc2nc(NCc3ccc(OC)c(OC)c3OC)sc2c1,-0.7%,-7.8,-12.1,-9.1,0.2
Oc1c(C(c2ccccc2)N2CCCCC2)ccc2ccccc12 (configuration not stated),20.6%,-2.1,-4.5,15.8,4.0
C[C@H](CO)N1C[C@H](C)[C@@H](CN(C)C(=O)c2ccc3ccn(C)c3c2)OCc2cnnn2CCCC1=O,-2.6%,-1.0&-0.9,4.1&0.6,7.4&-0.8,2.1&-1.3
COc1cc(CCC(=O)OCC(=O)Nc2sccc2C(N)=O)cc(OC)c1OC,4.1%,?,-2.7,-9.8,-3.3
COc1ccc(S(=O)(=O)N2CCCCC2)cc1NC(=O)Cc1cccc(C(F)(F)F)c1,-6.8%,-1.0,-2.6,3.8,-3.7
C[C@H](CO)NC(=O)c1[nH]cnc1C(=O)Nc1ccc(CNC(=O)OC(C)(C)C)cc1,5.3%,-0.5,2.6,6.5,0.6
COc1ccc(NC(=O)COC(=O)C2CCCN2C(=O)OC(C)(C)C)cc1Cl (configuration not stated),1.1%,-2.6,2.5,-2.6,-0.7
CCC1(c2ccccc2)C(=O)N=C(N)N(C#N)C1=O (configuration not stated),-8.1%,-26.0,1.3,3.8,-1.5
CCc1ccccc1NC(=O)CN1CCN(C(=O)c2ccc(OCc3cn4ccccc4n3)cc2)CC1,5.1%,-9.7,-1.5,-11.1,0.3

Later entries
Molecule,Vif TR-FRET,MLL AF4-AF9 inh,Ecoli rRNA inh,Ecoli rRNA inh OD600,Ecoli rRNA inh RFP
CCC1CCCCN1C(=O)COC(=O)c1cncc(Br)c1 (configuration not stated),-7.2%,-1.9,4.5,12.4,1.9
COC(=O)C1C2CC3c4[nH]c5cc(OC)ccc5c4CCN3CC2CC(OC(=O)CC(C)=O)C1OC (configuration not stated),8.7%,8.8,5.5,12.3,8.5
NC(=O)c1ncn([C@@H]2O[C@H](CNCc3ccc(OCC(=O)Nc4ccccn4)cc3)[C@@H](O)[C@H]2O)n1,0.4%,1.5,22.4,12.0,3.6
Fc1ccccc1CSc1ncnc2c1ncn2C1CCCCO1 (configuration not stated),2.9%,-2.2,-41.3,-59.5,-0.1
CCCN(CC(=O)Nc1ccccc1C)C(=O)Cc1c[nH]c2ccccc12,3.1%,7.6,-4.1,-1.5,1.4
O=c1cc(-c2ccccc2)nc2c(Cl)cc(Cl)cn12,-7.0%,4.0,18.2,16.6,4.4
COc1cc(/C=N/NC(=O)c2ccccc2NS(=O)(=O)c2cccs2)ccc1O,6.0%,1.0,-14.4,-6.9,-0.1
COc1cccc(S(=O)(=O)N(C)C[C@@H]2OCc3cn(nn3)CCCC(=O)N([C@@H](C)CO)C[C@H]2C)c1,2.2%,0.0&-0.1,10.8&2.6,10.2&-1.7,-1.4&-0.9
CC(C)(C)NC(=O)CN1C(=O)c2cccc3cccc1c23,3.0%,-4.2,7.1,9.9,-0.8
CCCCCCN1C[C@H](O)[C@@H](n2cc(-c3ccc(F)cc3)nn2)C[C@@H]1c1ccc(C)cc1,-2.9%,0.1,-1.6,-20.1,5.5
O=C(COC(=O)c1cc(S(=O)(=O)N2CCCC2)ccc1O)NCc1ccccc1,4.5%,0.1,6.5,11.7,-0.7
O=c1[nH]nc(Br)c(=O)n1C(c1ccccc1)c1ccccc1,-1.6%,-0.6,-62.8,-82.4,-19.1

Structures above that have two or more sulfur atoms (2):
Molecule,Vif TR-FRET,MLL AF4-AF9 inh,Ecoli rRNA inh,Ecoli rRNA inh OD600,Ecoli rRNA inh RFP
O=C1CSC(=S)N1c1ccccc1,-4.5%,-4.1,6.8,9.0,53.1
COc1cc(/C=N/NC(=O)c2ccccc2NS(=O)(=O)c2cccs2)ccc1O,6.0%,1.0,-14.4,-6.9,-0.1

Later entries:
Molecule,Vif TR-FRET,MLL AF4-AF9 inh,Ecoli rRNA inh,Ecoli rRNA inh OD600,Ecoli rRNA inh RFP
CC1(C)Cc2cccc(OCC(=O)OCC(=O)Nc3ccc(S(N)(=O)=O)cc3)c2O1,-4.2%,-2.9,15.2,9.2,2.9
O=C(OCc1ccccc1)N(CCF)c1cn(Cc2ccccc2)c(=O)n(Cc2ccccc2)c1=O,12.0%,-5.3,4.0,10.2,4.6
COc1ccc([C@H]2N[C@]3(CCCN(Cc4ccc(C(F)(F)F)cc4)C3=O)[C@H]3C(=O)N(Cc4ccccc4)C(=O)[C@@H]23)cc1,-8.0%,0.7,-4.7,1.2,1.4
O=C(N=C1SC2CS(=O)(=O)CC2N1Cc1ccccc1)C1CC1 (configuration not stated),-2.5%,0.5,3.9,8.8,-6.7
OC1(c2ccccc2)CC(c2ccccc2)c2ccccc2O1 (configuration not stated),11.3%,3.0,-52.5,-80.7,-17.8
O=C(Nc1ccccc1N1CCOCC1)C1=NN(c2ccccc2)C(=O)CC1,-17.3%,6.4,-8.1,-8.9,-0.3
Clc1ccc(C=Cc2ccccn2)cc1,-3.1%,-14.8,-17.6,-7.2,0.0
O=C(c1cccs1)N1C[C@@H](O)[C@H](n2cc(-c3ccc(F)cc3)nn2)C[C@@H]1c1ccccc1,6.8%,-3.0,-10.0,-6.4,-1.1
COc1ccc(C(=C(CC(=O)O)C(=O)OC(C)(C)C)c2cc(OC)c(OC)c(OC)c2)cc1OC,-4.5%,-2.9,4.3,9.8,-2.2
O=C(COC(=O)c1cc(S(=O)(=O)N2CCOCC2)ccc1O)NCc1ccc2c(c1)OCO2,1.5%,-0.2,-4.7,1.9,-1.8
C[C@@H]1CN([C@@H](C)CO)C(=O)CCCn2nncc2CO[C@@H]1CN(C)C(=O)C1CCCCC1,5.4%,-0.5&-0.9,8.4&4.5,6.6&2.5,6.2&-1.2
OC(c1ccccc1)c1ccccc1CN1CCCNC1=S (configuration not stated),-2.6%,1.1,1.0,-0.3,4.7

(next part)
Molecule,Vif TR-FRET,MLL AF4-AF9 inh,Ecoli rRNA inh,Ecoli rRNA inh OD600,Ecoli rRNA inh RFP
O=C(Cn1cnc2c(NCc3ccccc3)ncnc21)NCc1ccccc1,-7.0%,-0.9,2.5,0.7,-2.6
Nc1nc(N)c2c(n1)CN(Cc1ccc(Cl)cc1)C2,-2.7%,-2.1,11.2,6.1,-0.9
CCN(CC(=O)Nc1ccccc1OC)C(=O)CSCC(=O)Nc1cccc(C)c1,-0.7%,2.3,7.3,0.4,-1.4
CCOc1ccc(C(=O)N[C@H](C(=O)Nc2cccc(S(=O)(=O)N3CCOCC3)c2)C(C)C)cc1,-7.6%,-1.0,11.2,3.9,-0.6
COC(=O)[C@]1(Cc2ccccc2)N[C@H](CN(C)C(=O)C2CCCCC2)[C@@H]2C(=O)N(C)C(=O)[C@@H]21,0.0%,-6.0,3.8,4.2,-1.9
CN(C)c1ccc(/C=C2\c3ccccc3C(=O)N2c2ccccc2)cn1,-8.4%,14.9,-5.8,-7.7,-5.4
COc1ccc(S(=O)(=O)N2CCC(C(=O)NCCc3ccc(OC)c(OC)c3)CC2)cc1,-2.5%,2.7,10.1,3.0,1.7
O=C(CN1CCN(C(=O)C2CC2)CC1)Nc1ccc(Cl)cc1F,-5.4%,-5.3,6.5,6.2,0.1
NC(=O)c1nc2c([nH]c1=O)CCCC2,2.2%,-0.8,2.9,4.8,-2.8
C=CCn1c(C)cc(-c2csc(NC)n2)c1C,?,12.6,13.6,12.8,17.9
CC(=O)Oc1ccccc1C(=O)C=Cc1cccc([N+](=O)[O-])c1,-6.9%,9.6,-44.6*,-34.8*,-6.5*
c1ccc(COc2ncnc3c2ncn3CCCNCc2cccs2)cc1,-0.9%,-0.2,7.7,1.8,5.5

Following part:
Molecule,Vif TR-FRET,MLL AF4-AF9 inh,Ecoli rRNA inh,Ecoli rRNA inh OD600,Ecoli rRNA inh RFP
COc1ccc(-c2noc(CCC(=O)N3CCN(c4ccccc4Cl)CC3)n2)cc1,-0.2%,-0.1,-10.5,-36.1,0.5
O=C(Cc1cccs1)NCCS(=O)(=O)N1CCN(c2ccccc2)CC1,-2.0%,1.3,3.9,2.6,0.2
Cc1[nH]nc(C(F)(F)F)c1N=NN1CCOCC1,-4.2%,-1.9,-58.7,-76.0,-21.9
O=S(=O)(c1ccc(NC(=S)N2CCOCC2)cc1)N1CCCCC1,-3.4%,-1.3,-1.0,3.8,-2.3
Cc1ccc(NC(=O)CSCC(=O)Nc2ccc(N3CCOCC3)cc2N2CCOCC2)cc1,4.6%,-4.3,9.3,8.6,-1.0
CCN([C@H](CO)CC(C)C)S(=O)(=O)c1ccccc1,0.8%,-1.0,6.0,7.2,-1.6
Cn1ncc2c(=O)[nH]c(N)nc21,-9.0%,-2.9,5.0,23.1,-2.2
Cc1cccc(OCc2ccccc2)n1,0.0%,4.9,7.2,8.8,-2.5
Cc1ccc(S(=O)(=O)N2CCOCC2)cc1NC(=O)Cn1nnc(-c2ccccc2)n1,-3.3%,-1.1,-7.6,-4.2,-4.9
NS(=O)(=O)c1ccc(CNC(=O)c2cc(S(=O)(=O)N3CCOCC3)c(Cl)cc2Cl)cc1,6.3%,-1.8,4.7,2.2,1.4
C[C@@H]1CCCCO[C@@H](CN(C)CC2CCCCC2)[C@@H](C)CN([C@H](C)CO)C(=O)c2cc(NS(=O)(=O)c3ccc(Cl)cc3)ccc2O1,-3.8%,8.7,1.9,-2.6,-1.6
CCCCN(C(=O)Cc1ccc2c(c1)OCCO2)c1c(N)n(CC(C)C)c(=O)[nH]c1=O,3.5%,-5.7,7.9,10.9,-2.6

The listing continues:
Molecule,Vif TR-FRET,MLL AF4-AF9 inh,Ecoli rRNA inh,Ecoli rRNA inh OD600,Ecoli rRNA inh RFP
COc1ccc(OCC(=O)Nc2cc(S(=O)(=O)N3CCCC3)ccc2Cl)cc1,-7.3%,-1.7,2.5,-0.3,-4.0
Cc1ccc(S(=O)(=O)N2C[C@H]3[C@H]4C(=O)N(c5ccccc5)C(=O)[C@H]4C[C@H](OC(=O)NCc4ccccc4F)[C@@]3(O)C2)cc1,3.6%,0.2,-4.5,7.0,1.4
CC(C)C[C@H]1CN([C@@H](Cc2ccc(O)cc2)CN2CCC[C@@H]2CN2C(=O)C(=O)NC[C@@H]2Cc2ccccc2)C(=O)C(=O)N1CC1CCCCC1,3.6%,-12.0,-2.3,-0.5,11.9
COC(=O)C[C@@H]1C[C@@H]2c3cc(NS(=O)(=O)c4ccc(F)cc4)ccc3O[C@@H]2[C@H](CO)O1,-3.6%,-0.3&-4.3,-0.1,1.1,2.7
NC(=O)NC(CC(=O)OCC(=O)Nc1nnc(-c2ccccc2)o1)c1ccc(Cl)cc1 (configuration not stated),9.8%,-2.0,-11.8,-16.6,8.5
COc1ccc(CN(C)CCCn2cnc3c(SC)ncnc32)cc1OC,1.3%,-10.5,3.8,8.3,-2.2
Cc1oc(-c2cccs2)nc1CNC[C@H]1O[C@@H](n2cnc(C(N)=O)n2)[C@H](O)[C@@H]1O,0.2%,-5.1,8.3,12.3,-1.8
C[C@H]1CN(Cc2ccccc2)C(=O)[C@@H]1CC(=O)Nc1ccccc1,-7.5%,-0.8,0.4,-0.3,-2.6
COCCN(CC(=O)Nc1cccc(C)c1C)C(=O)c1ccc(S(=O)(=O)N2CCOCC2)cc1,4.3%,-0.5,-0.4,-0.8,-1.4
CC(=O)OCC(=O)C1(O)CCC2C3CCC4=CC(=O)CCC4(C)C3(Cl)C(O)CC21C (configuration not stated),-5.2%,-1.3,-3.2,-11.0,3.4
Cc1ccc(CC(=O)NNC(=O)c2cccs2)cc1C,-2.1%,14.1,-9.0,-0.3,-0.7
Cc1cc2oc(=O)cc(-c3ccccc3)c2c(C)c1-c1ccc(O)cc1,8.3%,-1.3,-23.0,-45.2,0.5
CCc1nc2ccc(C(=O)N(C)CC(=O)Nc3ccc(F)c(F)c3F)cc2nc1CC,2.6%,0.2,-0.3,-1.8,-1.3

Source: PubChem
